# GCN5L2 inh: blocks human GCN5L2 histone acetyltransferase; Potency, µM (titrated, usually from 58.9 µM), without a hit: top-dose activity change, negative = inhibition, usual class: inhibitors; Q92830; 390,000 tested, 0.21% active; GCN5L2 HAT assay, ThioGlo1 CoA-SH fluorescence
#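 Titration-based screen in which CoA formation is detected via maleimide probe ThioGlo1 (50uM) turning fluorescent on thiol reaction; substrates H3(1-25) 75uM and acetyl-CoA 70uM, GCN5L2 20nM, 20 min incubation at room temperature.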
# FEN1 inhibitor: human FEN1 inhibition. P39748. Recombinant FEN1 flap cleavage, fluorescence, 15 min. Potency, µM (top dose mostly 114 µM), for the others: top-dose activity change, negative = inhibition, most hits filed as inhibitors. 390,000 tested, 0.35% active; note: nearly all actives have a fitted effect of over 65% in size
# Target sequence (P39748 whole entry, looked up): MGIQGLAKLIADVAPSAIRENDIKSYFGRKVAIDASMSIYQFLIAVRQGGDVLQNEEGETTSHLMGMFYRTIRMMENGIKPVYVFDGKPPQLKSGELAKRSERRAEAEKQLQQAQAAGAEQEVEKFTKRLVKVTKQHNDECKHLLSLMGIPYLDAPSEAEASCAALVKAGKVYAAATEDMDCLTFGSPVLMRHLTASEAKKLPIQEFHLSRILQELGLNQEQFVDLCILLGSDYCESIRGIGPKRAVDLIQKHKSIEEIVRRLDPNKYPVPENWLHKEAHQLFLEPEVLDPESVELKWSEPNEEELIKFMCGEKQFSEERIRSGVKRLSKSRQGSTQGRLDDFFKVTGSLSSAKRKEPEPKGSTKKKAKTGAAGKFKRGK
#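 Compounds are tested as a concentration series against 10 nM FEN1; after a 15 min room-temperature preincubation, 50 nM substrate starts cleavage, with plate reads at 0 and 15 min. Normalized responses are fitted by a Hill equation.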
# Active calls of the source: *; ? = inconclusive; nt = not tested or not shown; & = joins results of further samples. Calls come from the whole dose curve; as a rule, active = well fitted curve in the direction sought with a large enough effect; inconclusive = small, poorly fitted or top-dose-only effect, or another doubt; inactive = no such curve, though single readings can be large; an effect the other way counts as inactive or inconclusive. % is set by controls: 0 for no effect and ±100 for the full control effect; potency is the fitted concentration of half-maximal effect. Not all compounds are listed; most or all hits stand in other tables.
SMILES	GCN5L2 inh	FEN1 inhibitor
COCc1[nH]nc2c1C(c1ccccc1Cl)C(C#N)=C(N)O2 (configuration not stated)	-2.9%	0.3%
Cc1cc(C)c(S(=O)(=O)Nc2cnc3ccccc3c2)c(C)c1	-10.4%	-5.4%
CC(NC(=O)c1ccc(Cl)cc1Cl)C(c1ccccc1)N1CCOCC1 (configuration not stated)	-4.5%	-3.5%
COc1ccc(/C(C)=N/Nc2ccc(C(=O)O)cc2)c(OC)c1	-1.9%	1.1%
Cc1ccc(C(=O)Oc2ccc(C(=S)N3CCOCC3)cc2)cc1	-27.1%	1.0%
COC(=O)Cc1[nH]nc2c1C(c1cc(OC)c(OC)c(OC)c1)C(C#N)=C(N)O2 (configuration not stated)	3.9%	1.3%
CCC(c1nnnn1Cc1ccc(F)cc1)N1CCN(C2CCCCC2)CC1 (configuration not stated)	0.4%	-0.7%
COc1ccc(/C(N)=N/OC(=O)Cc2cccs2)cc1OC	-2.8%	9.4%
O=C(Nc1cccc(Cl)c1)C1C2C=CC3(O2)C1C(=O)N(CCCN1CCCCC1)C3C(=O)NC1CCCCC1 (configuration not stated)	-3.4%	-0.8%
O=c1c2cc(N3CCOCC3)ccc2[nH]c(=S)n1Cc1ccccn1	-12.2%	13.9%
O=C(OCc1cc([N+](=O)[O-])cc2c1OCOC2)c1ccc2ccccc2n1	-2.8%	-6.7%
CC(=O)OCn1ncc(N2CCOCC2)c(Br)c1=O	1.4%	1.0%

# (more compounds)
SMILES	GCN5L2 inh	FEN1 inhibitor
CC1C=CCC2C(=O)N(c3cccc(C(=O)NCc4ccccc4)c3)C(=O)C12 (configuration not stated)	-14.7%	-9.3%
Cc1cc(C(=O)N2CCCC(N3CCN(c4cccc(C(F)(F)F)c4)CC3)C2)no1 (configuration not stated)	1.2%	0.3%
Nc1ccc(Sc2cc(Cl)nc(N)n2)cc1	-2.2%	nt
Cc1cc(OC(=O)c2ccccc2Cl)c([N+](=O)[O-])c(=O)[nH]1	-0.7%	-4.6%
Cc1ccc(CNc2cc(-c3nn4c(C)nnc4s3)ccc2C)s1	-1.9%	-10.0%
CCOc1ccc(NS(=O)(=O)c2cc3c4c(c2)C(C)C(=O)N4CCC3)cc1 (configuration not stated)	-2.1%	-15.3%
CCCc1cc(=O)oc2c3c(cc(OCC(=O)NCC4CCC(C(=O)O)CC4)c12)OC(C)(C)CC3 (configuration not stated)	-28.8%	-4.0%
COc1ccc(C(=O)OCC(=O)N2C(C)CCCC2C)cc1[N+](=O)[O-] (configuration not stated)	0.3%	3.6%
CCOC(=O)c1c(C)[nH]c(C(=O)CSc2ccccc2)c1C	-2.1%	-5.2%
Cc1ccc(C)c(S(=O)(=O)N2CCCCC2CCNC(=O)C(=O)NC2CCCC2)c1 (configuration not stated)	0.7%	-3.3%
COc1cccc(C=NCCCN=Cc2cccc(OC)c2O)c1O	-2.7%	-5.0%
COc1ccc(OC)c(C(=O)COC(=O)c2c(OC)cccc2OC)c1	1.1%	-14.5%

# Continued:
SMILES	GCN5L2 inh	FEN1 inhibitor
O=C1C(Cl)=C(N2CCN(Cc3ccccc3)CC2)C(=O)N1Cc1ccccc1	-8.8%	-6.3%
COc1cc(C)c(Br)cc1S(=O)(=O)N1CCOCC1	-6.3%	7.7%
COc1ccc2sc3c(=O)[nH]c4ccccc4c3c2c1	-0.4%	-3.6%
Cc1sc2nc(C3CC3)nc(SCC(=O)N3CCCc4ccccc43)c2c1C	6.7%	nt
Cc1nc2ccccc2n1S(=O)(=O)N(C)C	-23.6%	6.9%
CCOC(=O)C(NC(=O)c1ccccc1)(Nc1cc(C)on1)C(F)(F)F (configuration not stated)	3.9%	-13.3%
Cc1ccc(C(=O)Nc2sc(C)c(C)c2C(=O)c2ccccc2)cc1	1.8%	-5.9%
O=C(N/N=C/c1ccc(O)c(O)c1)c1cccc(S(=O)(=O)N2CCCC2)c1	-6.8%	-6.3%
O=C(c1ccccc1)N1CCCCC(Cl)C1=O (configuration not stated)	-7.9%	22.8%
CCOC(=O)c1c(NC(=O)c2cc(C)on2)c2cc([N+](=O)[O-])ccc2n1C	-1.0%	-5.2%
COC(C[C@H]1O[C@@H]1[C@H](O)[C@H](C)OCc1ccccc1)OC	nt	2.2%
O=C(CC1C(=O)NCCN1Cc1cccc(F)c1)NC1CCCCCC1 (configuration not stated)	-2.8%	0.4%

# Additional results:
SMILES	GCN5L2 inh	FEN1 inhibitor
CCOc1ccc(NCc2cccn2-c2nnc(N3CCC(C(=O)NCCCN4CCCCC4)CC3)s2)cc1	-7.2%	-0.9%
Cc1cccnc1NC1OC(=O)c2ccccc21 (configuration not stated)	0.9%	-5.1%
CCOc1cccc(CN2CCCC(N3CCc4cc(OC)c(OC)cc4C3)C2)c1O (configuration not stated)	-2.6%	3.7%
O=C(COc1ccc(Cl)cc1Cl)NC1CCSC1=O (configuration not stated)	-8.8%	-3.5%
COc1cc(S(=O)(=O)NC2CCCCC2C)ccc1Cl (configuration not stated)	-23.0%	-16.0%
CC(=O)c1c(O)cc(C)n(-c2ccc(F)cc2)c1=O	3.3%	-2.5%
COc1cccc(-c2noc(-c3cccnc3)n2)c1	-2.1%	-10.5%
CCC(=O)NC(=S)Nc1ccccc1OC	-25.9%	-2.2%
O=C(CN1CCN(Cc2ccc(F)cc2)C1=O)NC1CCCC1	-1.3%	-0.6%
O=C(CSc1nc2ncccc2[nH]1)Nc1ccc2c(c1)OCO2	-2.0%	-4.6%
CCOC(=O)c1ccc(NC(=O)NC2CC3CCC(C2)N3)cc1 (configuration not stated)	9.2%	21.0%
CC(=O)NC(CC(=O)Nc1ccc(S(=O)(=O)N2CCCCC2)cc1)c1ccccc1 (configuration not stated)	-3.4%	4.2%

# New compounds follow.
SMILES	GCN5L2 inh	FEN1 inhibitor
Cc1ccc(CNC(=O)c2ccc(N3CCC4(CC3)CC(c3cccc(Br)c3)=NO4)c(N)c2)cc1	-8.5%	8.6%
Cc1cc(C)cc(NC(=O)CN2CCC(NC(=O)c3ccccc3F)CC2)c1	1.7%	3.4%
Cc1ccc(CNS(=O)(=O)c2ccc3oc(C(=O)O)c(C)c3c2)cc1	-2.1%	11.4%
COc1ccc(Br)cc1CSC(=N)N	-18.8%	17.4%
C=CCNC(=O)c1nc2ccccc2s1	-3.1%	0.4%
CCOC(=O)N1CCN(C(=O)CCCn2nc(C)c3sc4ccccc4c3c2=O)CC1	-0.7%	0.3%
COc1cccc(CNS(=O)(=O)/C=C/c2ccc(OC)c(OC)c2)c1	-11.5%	3.0%
O=C(NNS(=O)(=O)c1ccc(Br)cc1)C1CCCCC1	-1.3%	-10.3%
O=C(CCCn1c(=S)[nH]c2ccsc2c1=O)NCc1ccco1	-1.0%	1.2%
CCOc1ccc(C2C(C#N)=C(N)SC(N)=C2C#N)cc1OCC	-10.0%	7.2%
CCn1c2ccccc2c2cc(NC(=O)CSc3nnc(-c4ccccc4OC)n3N)ccc21	-11.6%	-12.7%
O=C(C[C@H]1C(=O)N(Cc2ccccc2)C[C@@H]1Cc1ccccc1)Nc1ccccc1	-5.3%	-23.7%&-0.8%

# Later entries:
SMILES	GCN5L2 inh	FEN1 inhibitor
CCC(=O)OCCn1c(Br)nc2c1c(=O)[nH]c(=O)n2C	-6.5%	0.9%
CCOC(=O)C1CCCN(C(=O)c2cc3cc(F)ccc3[nH]2)C1 (configuration not stated)	-2.6%	6.9%
Cc1ccc(C(=O)N(CC(=O)NC2CCCC2)c2ccccc2C)s1	-12.4%	-6.9%
CCOC(=O)C1C(c2ccc(C(=O)O)cc2)NC(=O)NC1(O)C(F)(F)F (configuration not stated)	-5.5%	7.6%
Cc1csc(NC(=O)CSc2nnc(-c3cccs3)n2C)n1	0.9%	-1.1%
COc1cccc(-c2ncc3ccccn23)c1	-9.5%	6.2%
CC(=O)c1sc(NC(=O)C2(F)C(F)(F)C(F)(F)C(F)(F)C(F)(F)C2(F)F)nc1C	-9.4%	8.5%
O=C(NC1CCCCC1)c1cc(-n2cnnc2)ccc1Cl	-0.7%	-5.5%
O=C(Cc1ccccc1F)NNC(=O)c1ccncc1	2.3%	23.1%
COc1ccc(-c2cc(C(F)(F)F)nc(SCC(N)=O)n2)cc1	-0.2%	4.8%
Cc1cc(CC(=O)O)c(C)cc1CC(=O)O	1.9%	-12.7%
CCc1c(C(C)S(=O)(=O)c2ccccc2)[nH]c(=O)n1CC (configuration not stated)	-7.3%	2.2%

# Further entries:
SMILES	GCN5L2 inh	FEN1 inhibitor
O=S1(=O)CCC(N=Cc2cc(Br)ccc2O)C1 (configuration not stated)	-7.4%	-4.1%
O=C(CSc1ncn[nH]1)NCCc1ccc(Cl)cc1	-2.8%	16.5%
COc1ccc(CNC(=O)Cn2cc([N+](=O)[O-])nc2C)cc1	nt	-4.5%
Cc1cc(NC(=O)/C=C/C(=O)N(c2ccccc2C)C(C(=O)NC2CCCC2)c2ccc(F)cc2)no1 (configuration not stated)	-10.4%	-17.0%
COc1ccnc(Oc2ccccc2)c1C(=O)N/C=N/OCc1ccccc1	0.1%	1.3%
COc1ccc(/C=N/n2c(C)nnc2C)c(OC)c1	28.3%	-2.7%
O=C(CCc1nnc2ccc(NCc3ccco3)nn12)N1CCCCC1	-28.4%	-3.8%
COC(=O)c1ccc(C(=O)N(C)C2CCCN(Cc3ccccc3F)C2)cc1 (configuration not stated)	-3.8%	-5.6%
COc1ccc(/C=C/C(=O)Oc2ccc(/C=N\NC(=O)c3ccc(F)cc3)cc2)cc1	-0.7%	-1.7%
Cc1noc(C)c1C(=O)N(C)Cc1ccccc1	-4.2%	0.9%
O=C(COC(=O)Cc1ccc(S(=O)(=O)N2CCOCC2)s1)NCc1ccccc1	-19.1%	3.9%
CC(C)(C)OC(=O)N1CCC(C(=O)N[C@@H](Cc2ccccc2)C(=O)O)CC1	0.0%	4.5%

# Shown with values under each structure: part of the list above
# Under each structure – GCN5L2 inh	FEN1 inhibitor
O=C(CCc1nnc2ccc(NCc3ccco3)nn12)N1CCCCC1
  -28.4%	-3.8%
COc1ccnc(Oc2ccccc2)c1C(=O)N/C=N/OCc1ccccc1
  0.1%	1.3%

# The results go on:
SMILES	GCN5L2 inh	FEN1 inhibitor
COc1ccc(S(=O)(=O)N2CCCCC2C)cc1 (configuration not stated)	0.5%	18.7%
Cc1ccc(S(=O)(=O)Nc2cccc(C(=O)NCC(c3ccco3)N(C)C)c2)cc1F (configuration not stated)	-18.9%	-0.6%
O=C(Nc1nc2c(F)cc(F)cc2s1)C1COc2ccccc2O1 (configuration not stated)	-25.4%	-20.8%
CNc1nnc(-c2cc3ccccc3oc2=O)s1	-13.5%	-12.5%
O=C(NC1CCCC1)C(c1cccnc1)N(C(=O)c1ccco1)c1cccc(F)c1 (configuration not stated)	-2.4%	3.1%
CC1CN(c2ccc(C(F)(F)F)cc2[N+](=O)[O-])CCN1S(C)(=O)=O (configuration not stated)	-3.7%	1.2%
Cc1ccc(O)c(C(=O)c2cc(C#N)c(=O)n(CC3CCCO3)c2)c1 (configuration not stated)	-1.1%	7.2%
Cc1ccc(-n2nnnc2SCC(=O)N2CCc3ccccc3C2)cc1	-11.4%	6.6%
CCNc1nc(NCC)nc(Oc2ccc(OCC)nn2)n1	-1.2%	8.8%
COc1ccc(F)cc1S(=O)(=O)NCC(c1ccc2c(c1)OCO2)N1CCN(C)CC1 (configuration not stated)	-3.0%	5.8%
Oc1ccc(Nc2nc(-c3ccc(Cl)cc3)cs2)cc1	?	nt
Cc1cccc(NC(=O)CC2SC(=NC3CCCCC3)NC2=O)c1 (configuration not stated)	-0.9%	-6.0%

# Further entries follow.
SMILES	GCN5L2 inh	FEN1 inhibitor
COc1ccc(C(=O)N2CCOC2CNC(=O)C(=O)NCc2ccc(F)cc2)cc1 (configuration not stated)	3.1%	1.3%
Cc1c(O)ccc(-c2n[nH]c(C(=O)O)c2-c2nc3ccccc3s2)c1O	-1.8%	8.7%
CC(CN(C)Cc1nc(Cc2cccc(C(F)(F)F)c2)no1)CN1CCCC1 (configuration not stated)	0.8%	-1.7%
CC(=O)Nc1ccc(NC(=O)c2ccccc2CCc2ccccc2)cc1	-5.2%	-4.4%

# Structural class: the compounds so far containing a Cl atom
SMILES	GCN5L2 inh	FEN1 inhibitor
COCc1[nH]nc2c1C(c1ccccc1Cl)C(C#N)=C(N)O2 (configuration not stated)	-2.9%	0.3%
CC(NC(=O)c1ccc(Cl)cc1Cl)C(c1ccccc1)N1CCOCC1 (configuration not stated)	-4.5%	-3.5%
O=C(Nc1cccc(Cl)c1)C1C2C=CC3(O2)C1C(=O)N(CCCN1CCCCC1)C3C(=O)NC1CCCCC1 (configuration not stated)	-3.4%	-0.8%
Nc1ccc(Sc2cc(Cl)nc(N)n2)cc1	-2.2%	nt
Cc1cc(OC(=O)c2ccccc2Cl)c([N+](=O)[O-])c(=O)[nH]1	-0.7%	-4.6%
O=C1C(Cl)=C(N2CCN(Cc3ccccc3)CC2)C(=O)N1Cc1ccccc1	-8.8%	-6.3%
O=C(c1ccccc1)N1CCCCC(Cl)C1=O (configuration not stated)	-7.9%	22.8%
O=C(COc1ccc(Cl)cc1Cl)NC1CCSC1=O (configuration not stated)	-8.8%	-3.5%
COc1cc(S(=O)(=O)NC2CCCCC2C)ccc1Cl (configuration not stated)	-23.0%	-16.0%
O=C(NC1CCCCC1)c1cc(-n2cnnc2)ccc1Cl	-0.7%	-5.5%
O=C(CSc1ncn[nH]1)NCCc1ccc(Cl)cc1	-2.8%	16.5%
Oc1ccc(Nc2nc(-c3ccc(Cl)cc3)cs2)cc1	?	nt

# High-throughput results (PubChem)
